From PubChem BioAssay
Rango complex inh = prevents formation of the Rango-importin beta complex; Rango CFP/YFP FRET sensor + importin beta, 45 min; 340,000 tested, 0.031% active; AID 540263; Potency, µM (doses to about 92.2 µM), for the others: top-dose inhibition of complex formation; Q14974; active = rising FRET ratio curve, often small or poorly fitted; inconclusive = mostly compound fluorescence or quenching in the first reads; inactive = flat curves in all reads;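 note: potency is the fitted concentration of half-maximal effect; 0% = DMSO wells and 100% = buffer wells lacking importin beta; nearly all actives have a fitted effect of over 15% in size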
Target sequence (Q14974 whole entry, looked up): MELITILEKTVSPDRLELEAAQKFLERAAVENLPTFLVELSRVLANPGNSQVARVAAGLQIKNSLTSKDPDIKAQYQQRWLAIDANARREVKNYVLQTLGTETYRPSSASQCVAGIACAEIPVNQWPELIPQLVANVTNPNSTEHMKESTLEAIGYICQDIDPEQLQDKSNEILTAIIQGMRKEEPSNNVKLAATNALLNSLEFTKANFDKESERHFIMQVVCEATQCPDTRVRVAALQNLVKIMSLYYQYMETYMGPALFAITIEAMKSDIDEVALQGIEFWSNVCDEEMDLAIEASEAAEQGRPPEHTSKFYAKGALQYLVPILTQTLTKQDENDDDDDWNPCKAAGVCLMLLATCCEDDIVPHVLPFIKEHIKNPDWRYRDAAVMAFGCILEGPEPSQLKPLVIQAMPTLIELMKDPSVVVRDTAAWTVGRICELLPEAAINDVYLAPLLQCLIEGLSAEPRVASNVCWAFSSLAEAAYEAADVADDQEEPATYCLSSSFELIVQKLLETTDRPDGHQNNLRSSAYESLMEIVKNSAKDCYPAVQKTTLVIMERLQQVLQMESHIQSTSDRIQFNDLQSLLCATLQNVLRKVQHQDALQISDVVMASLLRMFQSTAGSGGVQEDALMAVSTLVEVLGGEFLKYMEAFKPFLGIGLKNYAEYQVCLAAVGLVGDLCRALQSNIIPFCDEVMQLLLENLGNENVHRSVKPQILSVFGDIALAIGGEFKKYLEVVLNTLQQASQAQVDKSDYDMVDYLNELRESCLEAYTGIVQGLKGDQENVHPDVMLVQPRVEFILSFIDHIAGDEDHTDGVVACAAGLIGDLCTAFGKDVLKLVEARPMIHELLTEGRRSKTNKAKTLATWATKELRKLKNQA
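Inhibition scored from the CFP 486 nm/YFP 530 nm FRET ratio 45 min after adding 0.125 microM importin beta to 50 nM Rango biosensor preincubated 5 min with compound (room temperature, PBS with DTT, Tween-20, BSA). No-importin wells as positive control.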
miR-21 FLuc = raises the signal of a miR-21 reporter; Potency, µM (series often up to 38.3 µM), inactives show top-dose reporter change, positive = more light; 340,000 tested, under 10 active; HeLa miR-21 FLuc reporter, luciferase, 48 h; active = well fitted rising curve with a large enough effect; inconclusive = small, poorly fitted or top-dose-only effect; inactive = no such curve, though single readings can be large or run the other way;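 note: % of control where 0% means no effect; miR-21 action dims this reporter so a rising signal means less miR-21 action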
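Using DMEM plus 10% FBS, HeLa miR-21-FLuc cells are incubated with test compounds (final up to about 40uM) for 48 hours; firefly luciferase signal is then imaged following reagent-mediated lysis.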
GLA inh pH 4.5 = inhibitors of human alpha-galactosidase A at pH 4.5. P06280. purified enzyme, 4-MU-alpha-Gal fluorescence, pH 4.5. activity change, negative = inhibition, % at 105 µM. 230,000 tested, under 10 active; inconclusive = small, poorly fitted or top-dose-only inhibition, or a rising curve; inactive = flat fitted curve, though single readings scatter; no compound was filed as active;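 note: 0% = full activity with enzyme and -100% = basal without enzyme; dose as in the result columns while the protocol names 77 µM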
Rango dissoc inh = prevents RanGTP from dissociating the Rango-importin beta complex; Biochemical FRET Rango-importin beta, RanGTP-induced dissociation; Potency, µM (series often up to 46.1 µM), for inactives: at the highest dose activity change, negative = inhibition; 340,000 tested, 0.071% active; active means falling FRET ratio curve, often poorly fitted, with flat reads before Ran was added; inconclusive means other falling curves, or compound fluorescence or quenching; inactive means flat or rising ratio curve;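 note: potency is the fitted concentration of half-maximal effect; % of control where 0% means no effect; nearly all actives have a fitted effect of over 45% in size; -100% = wells without RanGTP and RCC1; the record marks most hits as doubtful in a second field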
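Compounds sat 5 min at room temperature with 0.1 uM Rango biosensor plus 0.25 uM importin beta, then FRET pre-read. RanGTP-RCC1 (0.6 uM Ran, 2mM GTP, 0.2 uM RCC1) added for 45 min, and the CFP/YFP post-read measured blocked complex dissociation.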
The depositor's hits bear a star; ? = inconclusive; . = not tested or not shown; & = joins results of further samples; [ ] = another dose, or the depositor's remark. Only part of the results is shown; count on the stated rates, not on these rows.

SMILES	Rango complex inh	miR-21 FLuc	GLA inh pH 4.5	Rango dissoc inh
CCN(C[C@H]1N[C@@](CC)(C(=O)OC)[C@H]2C(=O)N(C)C(=O)[C@@H]12)S(=O)(=O)c1ccccc1	-1.1%	.	.	-11%
O=C(CSc1ccc(Cl)cc1)N1CCCC1	0.4%	-45%	1	12%
CC(=O)Nc1cccc(C(=O)N2CCN(S(=O)(=O)c3ccc4ccccc4c3)CC2)c1	-3.5%	-1%	.	-9%
Cc1ccc(C(C[N+](=O)[O-])Sc2ccc(N)cc2)cc1 (centres undefined)	2.1%	7%	-8	6%
O=C(O)c1cccnc1Sc1ccccc1	2.0%	-3%	6	-12%
COc1ccc(CNC(=O)C(OC(=O)c2cccs2)C(C)C)cc1 (centres undefined)	-0.5%	0%	.	10%
Cc1c(NC(=O)c2cccc(NC(=O)Cc3ccc(F)cc3)c2)c(=O)n(-c2ccccc2)n1C	-4.1%	.	.	1%
COc1cc2sc(-c3ccc(S(C)(=O)=O)cc3)c(C#CCO)c2cc1OC	?	.	.	15%
Cc1ccccc1C(=O)NCC(=O)NNC(=O)c1cccc(Cl)c1	3.9%	.	.	-13%
O=C(NNC(=O)C1CCN(c2ncccn2)CC1)c1ccc(F)cc1	0.2%	3%	.	-21%
O=C(O)COc1ccc(/C=N/NC(=O)c2ccc(-c3csc(Nc4ccc(Cl)cc4)n3)cc2)cc1	52µM*	-12%	5	-15%
COC(=O)c1cc(OC)c(OC)c(OC)c1[N+](=O)[O-]	0.0%	4%	6	-7%
COc1ccc2noc3c2c1C(=O)c1ccccc1-3	?	.	.	?
CCc1noc(C)c1C(=O)OC(C)C(=O)Nc1cc([N+](=O)[O-])ccc1OC (centres undefined)	-3.7%	.	.	11%
CC(=O)c1ccc(OCC(=O)c2ccc(-c3ccccc3)cc2)cc1	-1.0%	-5%	-1	1%
CC(C)=NNc1nc2c(c(=O)n(C)c(=O)n2C)n1C	0.1%	7%	-2	-6%
CCOC(=O)c1c(NC(=O)COC(=O)Cn2c(C(F)(F)F)nc3ccccc32)sc(C)c1C	0.9%	-3%	-4	-7%
COc1ccc([N+](=O)[O-])cc1NC(=S)NC(=O)C(C)(C)C	4.4%	-2%	3	12%
Cc1cccc(N2CCN(S(=O)(=O)c3cn(C)cn3)CC2)c1C	-4.4%	-13%	.	-1%
COc1nc(-c2ccccc2)cc(-c2ccc3c(c2)OCO3)c1C#N	7.3%	-2%	10	-12%
COc1cc(OC)c(-c2noc(C(=O)OC(C)(C)C)c2C(=O)OC(C)(C)C)c(OC)c1	-2.3%	5%	-9	1%
CCOc1ccc(NCc2ccccc2OCc2cccc(F)c2)cc1	0.1%	12%	1	4%
COc1ccc(C(CNC(=O)COc2ccc([N+](=O)[O-])cc2)N2CCCCC2)cc1 (centres undefined)	-0.4%	-3%	.	1%
COc1cccc(-n2c(SC3CCOC3=O)nc3ccccc3c2=O)c1 (centres undefined)	6.7%	-10%	10	2%
CC(=O)Nc1ccc(S(=O)(=O)NC(CC(=O)N(C)Cc2ccccc2)C(C)C)cc1 (centres undefined)	-0.9%	-3%	3	26%
CCOC(=O)c1c(C)nc2sc(C(N)=O)c(N)c2c1-c1ccccc1	?	2%	2	-28%
COc1ccsc1C(=O)Nc1ccc(F)cc1F	4.4%	-30%	11	-2%
CC(=O)N1CCCN(Cc2cn(-c3ccc(C)cc3)nc2-c2cccc(C)c2)CC1	-3.2%	-13%	5	12%
Cc1ccc(NC(=O)Cn2nnc3ccccc3c2=O)cc1C	-3.5%	1%	6	-26%
O=C(NCc1cccc2ccccc12)c1cccs1	3.5%	.	.	27%
O=C(Nc1ccc(S(=O)(=O)Nc2nccs2)cc1)C(F)(F)F	0.4%	.	.	2%
COC(=O)c1ccc(NC(=O)N(c2ccccc2)c2ccccc2)cc1	1.0%	-2%	.	3%
O=C1CCCC/C1=C/NCc1ccccc1	1.1%	-11%	7	14%
COC(=O)c1ccc(OC)c(CSc2nnc(COc3ccccc3)o2)c1	-1.4%	-6%	-12	-1%
Cc1ccccc1N(CC(=O)NC1CCCCC1)C(=O)CNC(=O)c1cccs1	-2.5%	0%	.	-15%
CN1CCN(Cc2nc3c(c(=O)n(C)c(=O)n3C)n2Cc2cccc3ccccc23)CC1	-1.6%	-4%	-1	-4%
S=c1[nH]nc(-c2ccco2)n1-c1ccccc1Cl	-0.8%	-29%	-2	35%
CC(=O)Nc1ccc(N/C=C(\C#N)S(=O)(=O)c2ccc(Cl)cc2)cc1	-1.0%	-3%	.	1%
Cn1c(=O)c2c(nc(SCc3nn[nH]n3)n2Cc2ccccc2F)n(C)c1=O	?	2%	-3	22%
CCCNC(=O)C1CC(=O)N(c2ccc(OCc3ccc(F)cc3)cc2)C1 (centres undefined)	-0.8%	-57%	.	2%
Cc1ccc(CNC(=O)C(NS(=O)(=O)c2cccc3nsnc23)c2ccccc2)cc1 (centres undefined)	-3.1%	2%	2	13%
Cc1ccc2c(c1)nc(-n1nc(C)cc1C)c1nnnn12	2.1%	-3%	-5	-2%
CCSc1nnc(NC(=O)[C@H](C)NC(=O)c2ccccc2Cl)s1	0.7%	-6%	-1	12%
CC(C)(C)C1CCC(C(=O)OCC(=O)c2ccc[nH]2)CC1 (centres undefined)	1.7%	-6%	-11	-1%
CCOc1ncccc1C(=O)OCCN1C(=O)c2ccccc2C1=O	-0.4%	0%	3	1%
Cc1cccc(/C(N)=N/OC(=O)c2cccs2)c1	1.2%	-48%	9	-4%
O=C(O)Cc1sc(Nc2cccc3ccccc23)nc1-c1ccccc1	1.4%	.	.	12%
C[C@H](NC(=O)OCc1ccccc1)c1nnc([C@H](C)NC(=O)OCc2ccccc2)o1	3.6%	2%	-3	20%
CC(C)(C)c1ccc(C(=O)NN=C2CCCC2)cc1	0.4%	2%	.	7%
CCNC(=O)c1cc2c(=O)n3cccc(C)c3nc2n(CCc2ccccc2)c1=N	?	-5%	4	?
CCCn1cc(S(=O)(=O)c2ccc(OC)cc2)c(=O)c2cc(OC)ccc21	0.8%	-12%	.	-7%
O=C(NC(Cc1ccccc1)c1nc2ccccc2[nH]1)c1ccc(Cl)c([N+](=O)[O-])c1 (centres undefined)	-5.1%	21%	0	-9%
CCCn1c(SCC(=O)NCC(=O)Nc2ccc(F)c(F)c2F)nc2ccccc2c1=O	4.2%	.	.	4%
Cc1ccc(C)c(N2N=C(C(=O)OCc3nnc(-c4ccccc4)o3)CCC2=O)c1	-0.2%	.	.	-4%
Cc1cc(C)c(OCCCCN(C)C)c(Br)c1	-2.9%	-7%	5	9%
CCC1CN(C(=O)N2CCC(C(=O)NCc3ccco3)CC2)c2cc(C)ccc2O1 (centres undefined)	0.0%	10%&8%	.	-4%
CCC(C)C(NC=C1C(=O)OC(C)(C)OC1=O)C(=O)O (centres undefined)	0.1%	-4%	-4	13%
CCOC(=O)C1=C(O)/C(=C/c2ccc(-c3ccccc3C(=O)O)o2)SC1=Nc1ccc(OC)cc1	?	-2%	5	?
COc1cccc2c(=O)n(CC(=O)Nc3cccc(F)c3)ccc12	?	-3%	-7	-13%
CCN(Cc1nc2ccccc2n1C)c1ccccc1	3.7%	-19%	.	9%

Next section:
SMILES	Rango complex inh	miR-21 FLuc	GLA inh pH 4.5	Rango dissoc inh
CCN1CCc2nc(SCC(=O)Nc3ccc(OC)cc3)c(C#N)cc2C1	?	-21%	9	?
Cc1c(N/C(=N/S(=O)(=O)c2ccc(Cl)cc2)c2ccccc2)c(=O)n(-c2ccccc2)n1C	.	0%	-5	.
CCCCOc1ccc(OC(=O)c2cccnc2)cc1	3.2%	-7%	-2	-7%
O=C(NCc1ccc(F)cc1)C(Cc1ccccc1)NS(=O)(=O)c1cccs1 (centres undefined)	0.3%	1%	-10	-4%
O=C(O)c1ccccc1SCc1csc(-c2ccccc2)n1	-1.4%	-51%	.	-16%
Cc1cccc(-n2ccc(=O)c(C(=O)O)n2)c1	1.5%	0%	.	-1%
O=C(NCC(=O)N1CCCC(C(F)(F)F)C1)c1ccco1 (centres undefined)	?	.	.	12%
COc1ccc(Cc2noc(-c3ccc(OC)c(OC)c3)n2)cc1OC	5.7%	1%	5	-15%
O=C(O)[C@H]1CCCC[C@H]1C(=O)Nc1ccc(Nc2ccccc2)cc1	3.4%	-11%	3	-1%
O=C(O)c1cccc(NC(=O)c2ccccc2)c1	-3.0%	.	.	?
CCOC(=O)C(CC(=O)Nc1nc(C(C)=O)c(C)s1)C(C)c1ccccc1 (centres undefined)	-4.3%	8%	.	-3%
O=C(CC1C(=O)NCCN1Cc1cccc(F)c1)NCCCOc1cccnc1 (centres undefined)	-1.2%	2%	.	9%
Cc1nc2sccn2c(=O)c1S(=O)(=O)Nc1ccc(N2CCN(C)CC2)cc1	-1.2%	5%&5%	.	3%
Cc1cccc(C)c1NC(=S)N/N=C1\CC2CC=CC12 (centres undefined)	1.3%	-1%	10	-5%
CC(=O)C[C@@H](O)CC(=O)[C@@H]1OC(=O)[C@@H](C)CCCCc2ccccc21	-0.2%	.	.	1%
COC(=O)c1ccc(Oc2cc(C)nc(NCc3ccccc3)n2)cc1	0.9%	-8%	8	-9%
Cc1ccc(S(=O)(=O)c2nnn(-c3cccc(F)c3)c2N)cc1	-1.5%	6%	6	4%
Cc1ccc(NC(=O)c2cnn(-c3ccccc3)c2NC(=O)c2ccco2)cc1C	0.9%	-39%	-2	-9%
COc1ccccc1C(=O)NC(=O)COC(=O)c1oc2ccccc2c1C	0.5%	.	.	5%
CC(=O)c1c(C)[nH]c(C(=O)COC(=O)c2ccc(C)s2)c1C	-0.7%	.	.	30%
COCCCNC(=O)CC1Oc2ccccc2NC1=O (centres undefined)	-3.1%	-2%	-2	12%
CN(/N=C/c1ccc(N(C)C)cc1)C1=NS(=O)(=O)c2ccccc21	?	-5%	.	?
O=C(O)C1CC=CCC1C(=O)NCc1cn2ccccc2n1 (centres undefined)	0.1%	-9%	5	-20%
O=C(N/N=C/c1ccncc1)c1ccc(-n2cccc2)cc1	-3.0%	-6%	1	-1%
CN(Cc1ccccc1)C(=O)c1cccc(NC(=O)Cc2ccc(NC(=O)C3CCN(C(=O)CCc4ccccc4)CC3)cc2)c1	-1.2%	.	.	7%
O=C(COC(=O)c1cc(S(=O)(=O)N2CCCC2)ccc1O)Nc1ccc(SC(F)F)cc1	-0.6%	.	.	-6%
COc1cc(/C=C/C(=O)OCC(=O)NCC(=O)Nc2cccc(C)c2C)ccc1OC(F)F	0.3%	.	.	10%
CCn1nnnc1-c1ccc(OC)c(S(=O)(=O)Nc2ccc(S(N)(=O)=O)cc2)c1	-1.8%	2%	3	-9%
O=C(N/N=C/c1ccc(N2CCOCC2)o1)c1ccccc1[N+](=O)[O-]	-0.4%	-3%	-8	-1%
Cc1ccccc1CN1C(=O)c2ccccc2Sc2ccc(C(=O)O)cc21	-1.8%	2%&0%	-6[21.1 µM]	3%
CS/C(=N\S(=O)(=O)c1cccs1)Nc1ccc(F)cc1	-3.5%	-26%	3	-3%
O=C(Nc1ccc(N2CCOCC2)cc1)c1ccccc1SCC(=O)N1CCCC1	-0.9%	-2%	-4	-4%
CCCCN1CC(COCc2ccccc2)Oc2cccc(Oc3ccc(C)cc3)c2S1(=O)=O (centres undefined)	-0.5%	.	.	22%
COc1ccccc1OCc1nc(C#N)c(N2CCC(C(N)=O)CC2)o1	-0.1%	-1%	7	14%

A different layout for part of the listing above:
Structure | Rango complex inh | miR-21 FLuc | GLA inh pH 4.5 | Rango dissoc inh
O=C(CSc1ccc(Cl)cc1)N1CCCC1 | 0.4% | -45% | 1 | 12%
CC(=O)Nc1cccc(C(=O)N2CCN(S(=O)(=O)c3ccc4ccccc4c3)CC2)c1 | -3.5% | -1% | . | -9%
Cc1ccc(C(C[N+](=O)[O-])Sc2ccc(N)cc2)cc1 (centres undefined) | 2.1% | 7% | -8 | 6%
O=C(O)c1cccnc1Sc1ccccc1 | 2.0% | -3% | 6 | -12%
